Screening results from PubChem.
CBX7 AlphaScr = inhibitors of human CBX7 binding to H3K27me3 peptide; 1.1% of 66,000 active; AID 1224903; O95931; normalised signal (fraction of DMSO) (test concentration not listed); AlphaScreen His6-CBX7 / biotin-H3K27me3 peptide binding; stronger effect = lower value; in the data active = normalised signal below about 0.5;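 also: 100 nL library stock added to about 20 µL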
Target sequence (O95931 whole entry, looked up): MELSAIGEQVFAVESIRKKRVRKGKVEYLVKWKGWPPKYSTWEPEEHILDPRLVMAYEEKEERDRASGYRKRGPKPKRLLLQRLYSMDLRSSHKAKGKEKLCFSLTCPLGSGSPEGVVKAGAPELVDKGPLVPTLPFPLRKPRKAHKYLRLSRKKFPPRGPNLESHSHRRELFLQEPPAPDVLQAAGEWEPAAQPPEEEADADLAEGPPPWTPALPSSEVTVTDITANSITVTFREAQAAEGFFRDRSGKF
CBX7 AlphaScr z-score = second read-out of CBX7 AlphaScr, no call of its own (marks repeat the call); z-score; measured here: z-score of CBX7 signal; some inactives read as strong as hits; reference of the scale not given here;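 same signal on another scale; lower means less binding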
Starred values were filed as active, the others as inactive.

Fields: CBX7 AlphaScr, CBX7 AlphaScr z-score
O=C1c2cccc3cccc(c23)C(=O)N1CC1CCN(CC(O)COc2ccc(F)cc2)CC1 (centres undefined)
  0.84, -1.8
Cc1ccc(-c2csc(NC(=O)COc3ccccc3C(C)(C)C)n2)cc1
  1.1, 3
CCN(CC)S(=O)(=O)c1ccc2c(c1)N(CC(=O)Nc1cccc3ccccc13)C(=O)CO2
  0.95, -0.74
COC(=O)Cc1nc(N2CCC(C)CC2)c2c3c(sc2n1)CCCC3
  0.86, -0.14
O=C(Nc1ccc(F)cc1F)c1cc(-c2ccc(Cl)cc2)on1
  1.1, 0.089
COc1ccc2cc(-c3csc(C)n3)c(=O)oc2c1
  1.2, 3.6
O=S(=O)(NCc1nc2ccccc2[nH]1)c1ccc(Cl)c(Cl)c1
  0.85, -2.1
CN1CCN(CC(O)COCc2ccc(Cl)cc2)CC1 (centres undefined)
  1, 0.42
CCc1ccc(NS(=O)(=O)c2cnc[nH]2)cc1
  0.96, -0.52
CCOC(=O)c1nc(Nc2ccccc2)c2ccccc2n1
  0.91, -0.84
Cc1cc(C)cc(NC(=O)C2(NS(=O)(=O)c3cccc4cccnc34)CCCCC2)c1
  0.93, -3
Cn1c(C(=O)NCc2cccs2)cc2sc(Cl)cc21
  0.97, -1
O=C(Cn1cc(S(=O)(=O)c2ccc(Cl)cc2)c(=O)c2ccccc21)Nc1ccc2c(c1)OCO2
  0.96, -0.6
CCC(=O)N1CCc2cc(S(=O)(=O)NCCC(=O)Nc3cccc(C)c3C)ccc21
  1, -0.062
CCC(=O)N1c2ccc(S(=O)(=O)N3CCN(Cc4ccccc4)CC3)cc2CC1C (centres undefined)
  1.4, 1.7
CCOC(CNC(=O)c1ccc2c(c1)ncn2-c1cc(C)cc(C)c1)OCC
  0.91, -1.5
O=C(NCC1CCCO1)c1cnn(-c2ccccc2)c1-n1cccc1 (centres undefined)
  1, 0.75
Cc1csc(NC(=O)C2CCCN2S(=O)(=O)c2cccc3cccnc23)n1 (centres undefined)
  0.9, -0.85
Cc1cccc(NC(=O)C2CCCN2S(=O)(=O)c2ccc3c(c2)n(C)c(=O)c(=O)n3C)c1 (centres undefined)
  1.1, 1.3
O=C(CN1C(=O)CC(c2ccccc2)Sc2ccccc21)Nc1ccc2c(c1)OCCO2 (centres undefined)
  0.91, -1.5
O=C(NCCN1CCC(Cc2ccccc2)CC1)C1CCCN(S(=O)(=O)c2cnc[nH]2)C1 (centres undefined)
  0.97, -0.64
CCOC(=O)CNC(=O)CSc1nnc(Cc2cccn2C)n1-c1ccc(C)cc1
  0.96, -0.96
COc1cccc(-c2nn(C)c3sc(C(=O)N4CCCCC4)cc23)c1
  0.95, -1.3
Cc1ccc(-n2nc(C)c3c(C)c(CCC(=O)NCCN4CCCC4)c(C)nc32)cc1
  1.5, 4.2
O=C(NCc1ccc2c(c1)OCO2)C1CCC(=O)N1Cc1ccccc1Cl (centres undefined)
  1, 0.63
CCN(CC)S(=O)(=O)c1ccc2c(c1)N(CC(=O)Nc1ccsc1C(=O)OC)C(=O)CS2
  0.96, -1.3
Nc1nc(-c2ccco2)nc(N2CCCCC2)n1
  1, 0.15
CCc1c(C)sc(NC(=O)c2cc(-c3cccc(OC)c3)on2)c1C#N
  0.98, -0.14
COc1ccc(C)cc1NC(=O)C(NS(=O)(=O)c1ccc2c(c1)CCN2C(C)=O)C(C)C (centres undefined)
  1.1, 2.6
Cc1ccc(-n2c3c(cc(C(=O)Nc4ccccc4C)c2=O)C(=O)CC(C)(C)C3)cc1
  1.1, 1.6

Some of the entries above, set out differently:
> COc1ccc(C)cc1NC(=O)C(NS(=O)(=O)c1ccc2c(c1)CCN2C(C)=O)C(C)C (centres undefined)
  CBX7 AlphaScr: 1.1	CBX7 AlphaScr z-score: 2.6
> CCC(=O)N1c2ccc(S(=O)(=O)N3CCN(Cc4ccccc4)CC3)cc2CC1C (centres undefined)
  CBX7 AlphaScr: 1.4	CBX7 AlphaScr z-score: 1.7
> COc1ccc2cc(-c3csc(C)n3)c(=O)oc2c1
  CBX7 AlphaScr: 1.2	CBX7 AlphaScr z-score: 3.6
> CN1CCN(CC(O)COCc2ccc(Cl)cc2)CC1 (centres undefined)
  CBX7 AlphaScr: 1	CBX7 AlphaScr z-score: 0.42

(listing goes on)
Fields: CBX7 AlphaScr, CBX7 AlphaScr z-score
COCCCNC(=O)Cn1cnc2sc(C(=O)N3CCCC3)c(C)c2c1=O
  1, -0.052
CCC1Oc2ccc(C)cc2N(CC(=O)NCc2ccc(F)cc2Cl)C1=O (centres undefined)
  0.85, -1.7
CCCC(CCC)C(=O)NCCc1cc2c(C)ccc(C)c2[nH]c1=O
  1.1, 2.1
COc1ccccc1-c1nnc(NC(=O)c2ccc(S(=O)(=O)N3CCC(C)CC3)cc2)o1
  0.85, -3.3
COc1ccc(Cc2noc(-c3cc(-c4ccc(Cl)cc4)nc4ccccc34)n2)cc1
  1.2, 0.33
COc1ccc(-n2nc(-c3ccc(Cl)cc3)cc2-c2ccc(Cl)cc2)cc1
  0.98, -0.36
CCN(CC)S(=O)(=O)c1cc(-c2nn(C)c(=O)c3ccccc23)ccc1C
  0.82, -2
COc1ccc(NC(=O)CN2CC(c3ccccc3)CC2=O)cc1Cl (centres undefined)
  0.99, -0.33
O=C(Nc1cnn(Cc2ccc(Cl)cc2Cl)c1)c1cc(-c2cccs2)on1
  0.96, -0.51
O=c1oc2ccc(Br)cc2cc1-c1csc(Nc2ccc(Br)cc2)n1
  1.1, 2.6
Cc1ccn2c(NC(=O)c3ccccc3F)c(-c3ccccc3)nc2c1
  0.96, -1.1
CCOc1ccc2nc(NC(=O)Nc3ccc(F)cc3)sc2c1
  1, -0.042
CC(=O)Nc1ccc2c(c1)nc1n2CCN(Cc2ccccc2)C1
  1, 0.034
CCOC(=O)N1CCc2c(sc(NCc3ccncc3)c2C(=O)Nc2ccccc2OCC)C1
  0.84, -8.3
COc1ccc(CCNC(=O)Cn2c(=O)n(-c3ccc(C)c(F)c3)c(=O)c3sccc32)cc1OC
  0.84, -2.7
COc1ccccc1Nc1cc(C(=O)NCCCN2CCCCCC2)c2ccccc2n1
  1.1, 2.4
COc1cccc(CNC(=O)CCn2nc(-c3ccc(Cl)cc3)ccc2=O)c1
  1.1, 1.3
CCOC(=O)c1nc(Nc2ccc(Nc3ccccc3)cc2)c2ccccc2n1
  0.64, -13
COc1ccc(OC)c(C(O)c2nc3ccccc3n2C(C)C)c1 (centres undefined)
  1.1, 2.6
COc1cc(C)nc(N(Cc2ccccc2)S(=O)(=O)c2ccccc2)n1
  1.2, 1.7
Fc1cccc(-c2nc3cc(C(F)(F)F)cc(Br)c3nc2-c2cccc(F)c2)c1
  0.76, -1.6
O=C(Cn1ccc2ccccc2c1=O)NCCC(=O)N1CCC(Cc2ccccc2)CC1
  1.1, 1.4
O=C(C1CC(c2ccc(F)cc2)=NO1)N1CCN(C(c2ccccc2)c2ccccc2)CC1 (centres undefined)
  1, 1.4
CC(C)(C)c1ccc(C(=O)Nc2nc3ccc(S(C)(=O)=O)cc3s2)cc1
  1.1, 2.5
CC1CCN(c2ccc(NC(=O)c3cc4ccccn4n3)cc2)CC1
  0.9, -2.6
CCOc1ccc(-c2nc(C#N)c(N(C)C)o2)cc1
  1.1, 0.83
COc1ccc(NS(=O)(=O)c2c(C)noc2C)cc1
  0.98, -1
Cc1ccc(-c2noc(CCC(=O)NCCc3ccccc3Cl)n2)cc1
  1.1, 2.1
O=C1CCc2cc(S(=O)(=O)NC(Cc3ccccc3)C(=O)NCc3ccc(F)cc3)ccc2N1 (centres undefined)
  1, 0.079
COc1cccc(C(=O)NC(C)C(c2cccs2)N2CCN(c3ccccc3)CC2)c1 (centres undefined)
  0.74, -2.8

Additional entries follow.
Fields: CBX7 AlphaScr, CBX7 AlphaScr z-score
O=C(Cn1ncc2c1-c1ccccc1OC2)N1CCC(Cc2ccccc2)CC1
  0.97, -0.41
COCCNC(=O)c1c[nH]c2ccc(S(=O)(=O)N3CCOCC3)cc2c1=O
  1.2, 3.1
Cc1nc2cc(-c3cccc(F)c3)nn2c(C)c1CCC(=O)N1CCOCC1
  1, 0.64
O=C(Cn1nc(-c2ccc(Cl)cc2)ccc1=O)NCCc1ccc(Cl)cc1
  0.98, -1.1
COc1ccc(NC(=O)CCNS(=O)(=O)c2ccc3c(c2)CCN3C(C)=O)cc1OC
  0.99, -0.21
Cc1ccc(Cn2cc(CCC(=O)NC3CC3)c3ccccc32)cc1
  0.89, -0.11
CCOC(=O)c1ccccc1NC1c2ccccc2C(=O)N1Cc1ccccc1Cl (centres undefined)
  1, 0.44
O=C1CCc2cc(S(=O)(=O)N3CCC(C(=O)NCCCc4ccccc4)CC3)ccc2N1
  1, 0.17
CCOc1ccc2c(c1)c(=O)c(S(=O)(=O)c1ccccc1)cn2CC(=O)Nc1ccc(F)cc1
  1, 0.38
O=C(Nc1ccccc1C(=O)N1CCCC1)c1cccc(S(=O)(=O)N2CCCCC2)c1
  1.1, 1.2
Cc1ccc(-c2nc(CS(=O)(=O)CC(=O)NCCN(C)C3CCCCC3)c(C)o2)cc1
  0.99, -0.015
O=c1[nH]c2ccccc2n1CCOc1ccccc1
  0.99, -0.29
COc1cccc(-c2cc(C(F)(F)F)nc(NC3CCCC3)n2)c1
  1.4, 3
O=C(c1cn(-c2ccc(F)cc2F)c(=O)c2ccccc12)N1CCCCCC1
  1.1, 0.67
O=C(NC1CCCCCCC1)N1CCc2[nH]c3ccc(F)cc3c2C1
  0.87, -2
Cc1nc2cc(-c3cccc(F)c3)nn2c(C)c1CCC(=O)NCCCc1ccccc1
  0.94, -1
CC(C)Cc1cc(C(=O)NCCc2ccccc2)no1
  1.1, 3.1
O=S(=O)(Nc1nc2ccccc2nc1Nc1cccc(F)c1)c1ccc(Br)cc1
  0.93, -2.1
O=C(O)c1ccc(COc2cc([N+](=O)[O-])cc3cccnc23)cc1
  0.65, -1.4
O=C1CCCCCC1C(Nc1ccc2ccccc2c1)c1ccncc1 (centres undefined)
  1, -0.15
CCN1CCN(c2cc(C)c3cc(NC(=O)CCC(=O)NC4CCCC(C)C4C)ccc3n2)CC1 (centres undefined)
  1.2, 2.9
Cc1ccc(-n2nc(C)c3c(C)c(CCC(=O)Nc4ccc5c(c4)OCO5)c(C)nc32)cc1
  1, 0.013
CCOC(=O)c1cnc2c(C)cc(C)cc2c1NCCN1CCOCC1
  1.1, 2.1
Cc1cc(C)cc(CC2CC(=O)N(c3cccc(C(F)(F)F)c3)C2=O)c1 (centres undefined)
  1.3, 6.3
COc1ccc(NC(=O)CSc2ccc3nnc(-c4ccccc4)n3n2)c(OC)c1
  1, 0.048
C=C(C)Cn1c(CCNC(=O)c2ccc(Cl)cc2)nc2ccccc21
  0.98, -0.69
CCc1nc2ccc(C(=O)NCC(OC)OC)cc2nc1CC
  1.1, 0.8
CCC(=O)N1c2ccc(S(=O)(=O)N3CCCCCC3)cc2CC1C (centres undefined)
  0.8, -0.8
Cc1c(NC(=O)c2cccnc2)cccc1-c1nc2ncccc2o1
  1.1, 1.1
O=C(CCc1nc(-c2ccccc2F)no1)Nc1ccc(F)cc1Cl
  0.97, -0.53

Complete entries from above:
Profile of `COCCNC(=O)c1c[nH]c2ccc(S(=O)(=O)N3CCOCC3)cc2c1=O` = CBX7 AlphaScr: 1.2; CBX7 AlphaScr z-score: 3.1
Profile of `O=C(Cn1nc(-c2ccc(Cl)cc2)ccc1=O)NCCc1ccc(Cl)cc1` = CBX7 AlphaScr: 0.98; CBX7 AlphaScr z-score: -1.1

Next section.
Fields: CBX7 AlphaScr, CBX7 AlphaScr z-score
COc1ccc(-c2cc(C(F)(F)F)nc(N3CCCCC3)n2)cc1
  2.6, 12
O=C(Cc1coc(-c2ccc(F)cc2)n1)NCc1ccccc1
  1.1, 0.6
Cc1ccc(C(=O)c2oc3ccccc3c2NC(=O)COc2ccc(Cl)cc2)cc1
  1.1, 0.38
O=C(NCc1ccccc1Cl)c1cccc(NC2=NC3CS(=O)(=O)CC3S2)c1 (centres undefined)
  1, 0.33
CCc1ccc(-c2cc(C(=O)N3CCN(c4ncccn4)CC3)c3ccccc3n2)cc1
  1, -0.032
CCCCN(C)CCCNC(=O)C1CCN(c2nc3ccc(CC)cc3s2)CC1
  1.9, 9.4
Fc1ccc(NCc2nc3ccccc3n2CCOc2ccccc2Cl)cc1
  1.1, 0.94
Cc1oc(-c2ccc(Cl)cc2)nc1CN1CCC(C(=O)NCc2ccccc2)CC1
  1.1, 1.6
COC(=O)Nc1ccc(S(=O)(=O)Nc2cnc3ccccc3n2)cc1
  1, 0.49
O=C(c1ccc2c(c1)N(Cc1ccc(F)cc1)C(=O)c1ccccc1S2=O)N1CCCCC1 (centres undefined)
  0.53, -13
COc1cc(OC)c(NC(=O)CCNS(=O)(=O)c2ccc3c(c2)CCC(=O)N3)cc1Cl
  1.1, 2.2
N#Cc1c(Nc2ccccc2)ccnc1Oc1ccccc1
  0.86, -1.8
FC(F)(F)c1ccc(-c2nnc3ccc(C(F)(F)F)cn23)cc1
  0.92, -1.3
COC(=O)c1ccc(C2CC(=O)Nc3cc(OC)cc(OC)c32)cc1 (centres undefined)
  1.2, 1.5
COc1ccc(OC)c(C2=NOC(C(=O)NCCc3ccccc3)C2)c1 (centres undefined)
  1, 0.99
Cc1ccc(-c2nc(Nc3nc(C)cc(C)n3)n[nH]2)cc1
  1.1, 1.3

Only part of the results is shown. The share of hits here may be higher or lower than overall.
